LANA-nucl inh – inhibitors of KSHV LANA binding to nucleosomes | FITC-LANA1-23 / chicken nucleosome fluorescence polarization; active compounds read low | z-score (concentration not given with the values) | 51,000 tested, 0.3% active | AID 720717;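 active = both repeat wells score below -2 in polarization z-score versus plate sample wells, excluding overly bright wells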;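 note: 100 nL library stock added to about 30 µL; numbers are from one replicate; some results filed as inactive read as strong as hits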
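test system = FITC-LANA peptide and chicken nucleosomes | amount = 240 nM purified chicken nucleosomes (480 nM peptide binding sites), final | reagent = 50 nM FITC-LANA1-23 probe | medium = TEN-BT buffer, pH 7.5 | doses = single compound addition by pin transfer, 100 nL per well | timing = 10–45 min, room temperature | detection = fluorescence polarization | repeats = duplicate plates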
Ab BasE inh – blocks the Acinetobacter baumannii siderophore enzyme BasE; AID 485350; 84,000 tested, 0.1% active; purified BasE, fluorescence polarization binding displacement; inhibition, % (concentration not given with the values);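 active = both replicates above 25% with normal brightness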;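 note: 0% = negative plate control signal and 100% = positive plate control signal; stock transfer was 100 nL into about 30 µL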
Starred values were filed as active, the others as inactive; · = not tested or not shown; & = joins results of further samples.

SMILES | LANA-nucl inh | Ab BasE inh
CN1CCN(C2CC(=O)N(C3CCCCC3)C2=O)CC1 (stereo not given) | 1.3 | 0.0
O=C1CS/C(=C/C(=O)c2ccc(Cl)cc2)N1 | -0.48 | -1.9
Cc1ccc(C)n1-c1nn(S(C)(=O)=O)c2cccc(F)c12 | · | 0.1
CCCn1nc(C(=O)Nc2nnc(C3CC3)s2)c2ccccc2c1=O | · | -0.6
Cc1nonc1-c1cn2cc(Br)cc(Br)c2n1 | -0.23 | 1.3
O=C(NCC(=O)N1CCN(C(=O)c2ccccc2)CC1)c1ccccc1 | · | 0.3
N#Cc1nc(-c2ccccc2)oc1NCC1CCCO1 (stereo not given) | · | 3.1
COCCNCc1cc(C)ccc1OC | · | -5.2
CCOC(=O)c1csc(-c2ccccc2F)n1 | 0.11 | 1.0
CCCN1C(=O)/C(=N\OCC(=O)Nc2ccc(S(=O)(=O)N3CCOCC3)cc2)c2ccccc21 | · | 1.3
O=c1c2ccccc2nc2ccccn12 | -0.14 | 1.6
O=c1ccc2cc3c4c(oc3cc2o1)CCCC4 | 0.98 | 1.1
CN(C)c1ccc(-c2nc3ccccn3c2NC2CCCC2)cc1 | -1.3 | 1.8
CN(C)c1ncnc2sc3c(c12)CCCC3 | · | 1.1
COc1ccc(CO[C@@H]2O[C@H](CO)[C@@H](O)[C@H](O)[C@H]2NC(C)=O)cc1OC | -1.1 | 0.1
O=C1/C(=C\c2cccnc2)CN(Cc2ccccc2)C/C1=C\c1cccnc1 | -0.33 | -2.0
Cn1nnnc1SCC(=O)NCCc1ccc(Cl)cc1 | · | 0.3
NS(=O)(=O)Cc1ccccc1 | · | 0.9
Cc1ccccc1OCCn1c(SCc2nc3ccccc3[nH]2)nc2ccccc21 | · | 1.8
O=C(O)Cn1cc(C=C2C(=O)NC(=S)NC2=O)c2ccccc21 | 0.25 | 0.4
c1ccc2c(c1)[nH]c1c(N3CCOCC3)ncnc12 | 0.21 | 2.4
CC(=O)n1c2ccccc2c2c(-c3ccc(C)cc3)c(N3CCOCC3)sc21 | -1.1 | 0.9
CC1=CC(C)(C)N(C(=O)CNC2CCCCC2)c2cc(C)ccc21 | 0.79 | -2.9
COc1ccc(-n2c(C)cc(/C=C3/C(=N)N4C(=NC3=O)SN=C4S(C)(=O)=O)c2C)cc1Cl | -0.63 | 1.3
O=C(NCc1ccc(S(=O)(=O)N2C=CC(C(F)(F)F)=NCC2)s1)c1ccccc1 | · | -3.9
CCCCS(=O)Cc1ccccc1 (stereo not given) | -0.76 | -0.3
Cc1ccc(-c2nn(C)c(=O)c3ccccc23)cc1CNC(=O)CN1CCOCC1 | -1.4 | 0.5
CCCN1C(=O)/C(=N\OCC(=O)NC23CC4CC(CC(C4)C2)C3)c2ccccc21 | · | 0.4
CN(C)S(=O)(=O)c1ccc(S(=O)(=O)N(C)CC2COc3ccccc3O2)cc1 (stereo not given) | -2.1 | 1.0
CN(CCO)c1ncnc2sccc12 | · | 0.6
CN(C)c1nc(C=C(C#N)C#N)c(Cl)n1-c1ccc(F)cc1 | · | -3.0
COc1ccc(NC(=O)c2ccco2)cc1NC(=O)c1cccc(F)c1 | -1 | 1.7
CC(C)(C)N1CC(C(=O)Nc2ccc(S(=O)(=O)N3CCCCC3)cc2)CC1=O (stereo not given) | 0.67 | 2.1
CCSc1nc(=O)[nH]c2c1CCCC2 | -1.8 | 0.8
O=C(c1ccccc1)N1CCCCC(Sc2nnc3ccccn23)C1=O (stereo not given) | · | 1.9
COc1ccccc1Nc1cnnc2c(Cl)cccc12 | · | -5.8
CC(=O)N1N=C(c2cccs2)CC1c1c(C)coc1C (stereo not given) | -1.1 | 0.5
O=C(O)CC(NCc1ccccc1)c1ccccc1 (stereo not given) | · | 0.7
Cc1ccc(S(=O)(=O)CC(=O)Nc2ccc(-c3nc4ccc(C)cc4s3)cc2)cc1 | · | -0.2
Cc1nnc(SCCC(=O)Nc2cccc(-c3nc4ccccc4s3)c2)s1 | · | -4.2
CN(C)c1ccc(CN)cc1 | 0.61 | -0.7
CC(Oc1ccccc1)C(=O)OCC(=O)N1CCC(c2ccccc2)=N1 (stereo not given) | · | -0.5
O=S(=O)(c1ccc(C2=NNC(=NC3CC3)SC2)cc1)N1CCCCC1 | · | -0.3
NNC(=O)Cc1csc2nc(-c3ccccc3)nn12 | · | 1.3
CCCn1c(N)c(C(=O)CN(C)Cc2ccccc2)c(=O)[nH]c1=O | · | 2.2
CC1(C)C2CC=C(/C=N/NC(=O)c3ccc4c(c3)OCO4)C1C2 (stereo not given) | · | 2.4
CCCn1c(SCC(=O)N=c2sc3ccccc3n2C)nc2ccccc21 | · | 1.7
O=C1N=C(N2CCCC2)S/C1=C\c1cn[nH]c1-c1ccccc1 | 0.51 | 0.3

In a second layout: results already given
SMILES	LANA-nucl inh	Ab BasE inh
CC(C)(C)N1CC(C(=O)Nc2ccc(S(=O)(=O)N3CCCCC3)cc2)CC1=O (stereo not given)	0.67	2.1
CCSc1nc(=O)[nH]c2c1CCCC2	-1.8	0.8
O=C(c1ccccc1)N1CCCCC(Sc2nnc3ccccn23)C1=O (stereo not given)	·	1.9
COc1ccccc1Nc1cnnc2c(Cl)cccc12	·	-5.8
CC(=O)N1N=C(c2cccs2)CC1c1c(C)coc1C (stereo not given)	-1.1	0.5
O=C(O)CC(NCc1ccccc1)c1ccccc1 (stereo not given)	·	0.7
Cc1ccc(S(=O)(=O)CC(=O)Nc2ccc(-c3nc4ccc(C)cc4s3)cc2)cc1	·	-0.2
Cc1nnc(SCCC(=O)Nc2cccc(-c3nc4ccccc4s3)c2)s1	·	-4.2
CN(C)c1ccc(CN)cc1	0.61	-0.7
CC(Oc1ccccc1)C(=O)OCC(=O)N1CCC(c2ccccc2)=N1 (stereo not given)	·	-0.5
O=S(=O)(c1ccc(C2=NNC(=NC3CC3)SC2)cc1)N1CCCCC1	·	-0.3
NNC(=O)Cc1csc2nc(-c3ccccc3)nn12	·	1.3
CCCn1c(N)c(C(=O)CN(C)Cc2ccccc2)c(=O)[nH]c1=O	·	2.2
CC1(C)C2CC=C(/C=N/NC(=O)c3ccc4c(c3)OCO4)C1C2 (stereo not given)	·	2.4
CCCn1c(SCC(=O)N=c2sc3ccccc3n2C)nc2ccccc21	·	1.7
O=C1N=C(N2CCCC2)S/C1=C\c1cn[nH]c1-c1ccccc1	0.51	0.3

Next records:
SMILES | LANA-nucl inh | Ab BasE inh
Cc1onc(-c2ccccc2)c1C(=O)Nc1ccc(N)cc1 | 0.25 | -0.3
CC1(C)Cc2cccc(OCC(=O)OCC(=O)Nc3ccc4c(c3)OCO4)c2O1 | · | 2.0
O=C(N/N=C/c1cccs1)c1ccccc1 | -0.092 | 0.2
O=S(=O)(Nc1ccccc1Br)c1cccs1 | 0.22 | -2.2
O=C1CC(C(=O)Nc2ccccc2)C2=C(CC(c3ccco3)CC2=O)N1 (stereo not given) | 1 | 0.3
CCN(CC(=O)Nc1ccccc1OC)C(=O)c1ccco1 | · | 1.1
Cc1ccc(CNC(=O)c2ccccn2)n1C | · | -0.8
c1ccc(-c2cc3c(N4CCOCC4)ncnc3s2)cc1 | 0.63 | ·
CS(=O)(=O)c1sc(NC(=O)Nc2ccc(Cl)cc2)c2c1C=CCC2 | · | 1.7
Cc1ccc(NCC(O)C(O)C(O)CO)cc1C (stereo not given) | -1.1 | 1.1
CC1=C(C)C(=O)N(CCC(=O)O)C1=O | -0.2 | 2.8
CCCN1CCN(CCNS(=O)(=O)c2ccc(-c3cc(C(F)(F)F)no3)s2)CC1 | · | -0.8
O=C(Nc1ccccc1SCC(O)CSc1cccs1)c1ccc(Cl)cc1 (stereo not given) | · | -0.8
Cc1ccc(-c2ccc(SCC#N)nn2)c(C)c1 | -0.51 | 2.7
COc1ccc(/C=C/C(=O)ONC2=NCCCCC2)cc1OC | · | 1.9
CC1CC(C)CN(C(=O)CNC(=O)c2ccc(F)cc2)C1 (stereo not given) | · | -1.3
Nc1nc(SC23CC4CC(CC(C4)C2)C3)ns1 | -1.1 | -0.3
O=C(/C=C/c1c(Cl)nc2sccn12)NCc1ccc2c(c1)OCO2 | · | -2.5
CCN1CCN(C(=O)N(CC)CC)CC1 | 1.9 | 1.6
O=C(Nc1ccc(Br)c(C(F)(F)F)c1)c1ccc(CN2C(=O)c3ccccc3C2=O)o1 | · | -0.3
O=C(COc1ccc(S(=O)(=O)N2CCCc3ccccc32)cc1)NCC1CCCO1 (stereo not given) | -0.41 | 3.8
O=S(=O)(c1cc(Cl)ccc1Cl)n1ccc(-c2ccc(Br)s2)n1 | · | 3.0
Cc1cccc(NC(=O)NC(=O)c2ccc(C(C)(C)C)s2)n1 | · | 1.2
COc1ccccc1N(C)S(=O)(=O)c1ccc(C(=O)OCC(=O)N2CCC2)cc1 | · | -1.2
O=C(NCc1ccco1)c1ccc2c(c1)S(=O)(=O)N=C1CCCCCN12 | · | 0.0
O=C(Nc1nccs1)c1oc2ccccc2c1CSc1ncn[nH]1 | · | -2.0
C=CC[N+](C)(C)CCN1C(=O)C2C(c3ccccc3)C=CC(c3ccccc3)C2C1=O (stereo not given) | · | -4.1
O=C1ON(c2ccccc2)C(c2ccccc2)N1c1ccc(Cl)cc1 (stereo not given) | -0.5 | 1.1
Nc1ccc(C(=O)NCC(=O)O)cc1 | -0.72&-0.63&-0.17 | 0.5&1.8
COc1ccc(CC2C(=O)OC(C)(C)OC2=O)c(Cl)c1OC | · | 2.0
CCC(=O)NCCc1nc2cc(NC(=O)Nc3ccccc3)ccc2n1C | 0.053 | -6.3
O=C(COC(=O)[C@@H]1CCCN1S(=O)(=O)c1ccccc1F)c1ccccc1 | · | 0.6
CC1(C)C2CCC1(CS(=O)(=O)NCCCN1CCCC1=O)C(=O)C2 (stereo not given) | · | 1.4
Cc1ccccc1-c1nnc(-c2ccccc2)o1 | 1.5 | -0.1
O=C(NC1(O)C(=O)c2ccccc2C1=O)c1ccccn1 | -0.18 | -0.6
Cc1ccccc1N1OC2C(=O)N(c3sc4c(c3C#N)CCCC4)C(=O)C2C1c1cccs1 (stereo not given) | 0.23 | 2.3
O=C1CCC(C(=O)Nc2nc(SCc3ccc(Cl)cc3)n[nH]2)=NN1 | · | 1.9
CC(=O)NCc1ccc(C(=O)CSc2nnc3sc4ccccc4n23)o1 | · | 3.1
O=C(O)CC1NC(=O)N(C2CCCCC2)C1=O (stereo not given) | 0.15 | 1.8
CCN1C(=O)C(=C2SC3CS(=O)(=O)CC3S2)SC1=S (stereo not given) | · | 0.2
CCn1c(=O)c2c(nc3n2CCCN3c2ccccc2)n(C)c1=O | 0.12 | 1.5
N#Cc1nncn1-c1ncnc2scc(-c3ccc(Cl)cc3)c12 | · | 2.3
COc1ccc(N2C(=O)CC(Sc3nc4ccccc4c(=O)n3CCO)C2=O)cc1 (stereo not given) | · | 1.3
CN1CCN(c2nc3cc(C(F)(F)F)ccc3n3cccc23)CC1 | -0.72 | ·
CCOc1ccccc1NC(=O)C(C)Sc1ccccc1 (stereo not given) | -0.098 | 0.4
CC(C)CCNC(=O)C1CCCN(c2nc3ccccc3o2)C1 (stereo not given) | -1.2 | 0.2
Cc1onc(-c2ccccc2)c1C(=O)OCC(=O)c1ccc2[nH]c(=O)[nH]c2c1 | · | -1.6
CCn1c(-c2ccc(C)cc2)cnc1SCC(=O)N1CCN(C(C)=O)CC1 | · | 0.1
O=c1oc2ccccc2c(O)c1Cc1cc(Cl)c2cccnc2c1O | · | 23
CN(C)c1ccc(N=Cc2ccccc2)cc1 | · | 1.9
Cc1ccc(C2Nc3ccccc3C(=O)N2CCN2CCNC2=O)cc1 (stereo not given) | 0.94 | -0.5
COC(=O)c1cccc(NC(=O)/C=C/c2ccco2)c1C | -0.54 | 1.6
CCn1c(SCC(N)=O)nnc1C1CCCC1 | 0.77 | 0.6
O=C(Cn1cc(C(F)(F)F)ccc1=O)N/N=C/c1ccccn1 | · | 1.9
CN(C)C1CS(=O)(=O)CC1N(C)C (stereo not given) | · | -2.9
Cc1cccn2c(=O)c(C(=O)NC3CCCCC3C)c(O)nc12 (stereo not given) | -1.2 | 0.2
N#CCCCSc1ncnc2scc(-c3ccccc3)c12 | · | -3.4
Cc1ccccc1C(CC(=O)O)N1Cc2ccccc2C1=O (stereo not given) | 0.72 | ·
CCOC(=O)c1cc2c(ccn2C)n1CC(=O)N1C(C)CCCC1C (stereo not given) | -0.2 | 0.3
Cc1ccccc1CSc1cnc2ccccc2n1 | -0.3 | ·
(listing goes on)
SMILES | LANA-nucl inh | Ab BasE inh
COc1ccc(/C=C2\SC(=S)N(CC(=O)NCCO)C2=O)cc1 | 0.67 | -0.4
O=C(O)c1ccc2c(c1)C(=O)N(c1nc3nc4c(c(=O)n3[nH]1)CCC4)C2=O | -0.68 | 2.4
O=c1c2sc3nc(N4CCOCC4)c4c(c3c2ncn1-c1ccccn1)CCCC4 | -1.4 | 0.4
Cc1nnc(N(C)C)c2c1nnn2Cc1ccccc1Cl | 2.3 | -2.5
CCOc1ncccc1C(=O)Nc1ccc(S(=O)(=O)N2CCOCC2)cc1 | · | -1.4
CCOC(=O)C1CCCN(Cc2nc(N)nc(Nc3ccccc3)n2)C1 (stereo not given) | -0.59 | 1.9
COc1cccc(CNC(=O)c2[nH]nc3c2COc2ccccc2-3)c1 | 0.25 | 2.2
N#Cc1ccc(C(=O)N2CCN(c3cccc(C(F)(F)F)c3)CC2)cc1 | · | 1.6
CCN(CC)c1nc2ccccc2n(CC(=O)Nc2ccc(F)cc2F)c1=O | · | 6.5
CS(=O)(=O)c1ccc(C(=O)N2CCc3ccccc3C2)cc1 | · | 1.8

Assay outcomes: PubChem, ICCB-Longwood Screening Facility, Harvard Medical School

The list is partial; the hit share may differ from the screen's.
